Screening results from PubChem BioAssay.
BJeLR lethal = BJeLR cell viability loss; BJeLR (HRASV12) viability, CellTiter-Glo ATP luminescence, 48 h; reference of the scale not given here; inhibition, % (concentration not given with the values); 0.17% of 300,000 active;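 active = replicate mean above 50%; inconclusive = above 50% but judged a plate artefact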;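 also: 50 nL library stock added to about 25 µL; numbers are from one replicate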
Autofluor counter = flagged as autofluorescent in microsphere protease counterscreen; compound autofluorescence counterscreen, microsphere flow cytometry; active compounds read high; fluorescence intensity (test concentration not listed); 3.1% of 360,000 active; AID 624483;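 active = at least 3 SD above the mean of all compounds, about 16000 in these data; inconclusive = too few beads counted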;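 also: 100 nL of 1 mM stock went into each well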
Mtb hypoxia rep = inhibitors of hypoxia-regulated fluorescent reporter in Mycobacterium tuberculosis; fluorescence inhibition, % (concentration not given with the values); M. tuberculosis hypoxia-regulated fluorescent reporter, fluorescence; 0.1% of 300,000 active;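 active = 35 to 45% if threefold the growth effect, above 45% if 1.5-fold the growth effect; inactive = the rest, general growth blockers included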;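 also: wells of about 50 µL received 100 nL stock; 0% = vehicle wells and 100% = reference inhibitor wells; whole bacteria with a GFP reporter of the hypoxia response; strong numbers were not always called active; many hits fall short of the cut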
Sa ugtP lethal = kills S. aureus RN4220 lacking UgtP | S. aureus RN4220 ugtP deletion, OD600 growth, 16 h; some inactives read as strong as hits | growth inhibition, % (concentration not given with the values) | 0.54% of 330,000 active | AID 1259309;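 active = z-score under -3 and OD600 up to 0.15 on both plates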;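 also: plate controls were untreated wells for no effect and antibiotic for full effect; wells of about 80 µL received 100 nL stock; the first replicate is given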
Sa RN4220 lethal = kills Staphylococcus aureus RN4220; inhibition, % (concentration not given with the values); 0.33% of 330,000 active; S. aureus RN4220 growth, OD600, 16 h;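 active = z-score of -3 or lower and OD600 up to 0.18 on both plates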;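 also: plate controls were untreated cells for no effect and reference antibiotic for full effect; stock transfer was 100 nL into about 80 µL; one replicate is shown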
PrP UTR inh = inhibition of PrP 5' UTR reporter expression; cell-based PrP 5' UTR mRNA reporter, plate reader; inhibition, % (concentration not given with the values); 0.35% of 340,000 active; AID 488862;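 active = every replicate at 50% or more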;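 also: 0 = median of the neutral control wells; tested in H4 reporter cells; numbers are from one replicate; inactives centre near -14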
Mtb hypoxia rep growth = recorded beside Mtb hypoxia rep, whose call it bears; growth inhibition, %; measured here: M. tuberculosis growth (absorbance);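 0% = vehicle and 100% = reference antibiotic; read after six days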
Active calls of the source: *; ? = inconclusive; / = no result given.

structure	BJeLR lethal	Autofluor counter	Mtb hypoxia rep	Mtb hypoxia rep growth	Sa ugtP lethal	Sa RN4220 lethal	PrP UTR inh
CC1CCCN(C(=O)Cn2c(=O)oc3cc(S(=O)(=O)N4CCCCC4)ccc32)C1 (stereo not given)	/	5240	8.2	5.2	12.6	2.0	-22.8
CCCCc1ccc(NC(=O)CSc2nc3ncccc3[nH]2)cc1	7.9	/	-0.1	9.8	3.1	0.9	-16.8
CC(c1ccccc1F)n1cc(C(=O)NCCc2ccco2)nn1 (stereo not given)	-4.2	3870	/	/	6.3	0.7	-12.4
CCOC(=O)c1csc(NC(=O)CSc2nnnn2-c2ccc(OC)cc2)n1	-12.4	8489	13.8	2.0	7.0	4.7	14.6
Cc1ccc(C(C)n2cc(C(=O)NCc3ccccn3)nn2)cc1 (stereo not given)	5.8	3286	4.3	-0.8	9.1	4.0	-12.9
COc1ccc(C(=O)c2ccc(N(C)C)cc2)c(OC)c1	28.3	11642	2.0	10.8	2.6	2.3	-43.2
Nc1cc(=O)[nH]c(SCC(=O)Nc2cc(S(=O)(=O)N3CCCCC3)ccc2Cl)n1	/	2880	5.2	2.0	4.4	0.8	4.4
COc1cccc(N2CCN(C(=O)CCC(=O)N3CCOc4ccc(C)cc43)CC2)c1	9.5	5619	2.4	3.5	-8.2	5.8	-2.4
COCc1nc2oc3ccc(F)cc3c(=O)c2cc1C(=O)OC	3.6	3839	13.3	5.6	12.8	1.9	-76.5
O=C(COC(=O)c1ccc(F)c(S(=O)(=O)N2CCOCC2)c1)Nc1ccc2[nH]c(=O)[nH]c2c1	/	5256	-1.7	-1.7	4.4	3.9	/
Cc1ccc(NC(=O)CSc2n[nH]c(C)c2[N+](=O)[O-])cc1C	-25.5	2414	7.5	11.1	-11.5	-2.8	-15.4
COc1ccc(OC)c(NC(=O)c2ccc(CSc3nnc(C)s3)cc2)c1	5.3	2042	9.9	10.8	8.3	6.8	-2.5
CCCS(=O)(=O)N1CCC(C(=O)NCc2ccccc2Cl)CC1	/	3063	4.9	1.0	-1.5	-14.6	-11.3
COC(=O)c1[nH]c2c(c1C)C(=O)CC(c1cccs1)C2 (stereo not given)	50.8*	2532	/	/	-4.1	1.3	17.9
Cc1cc(C)cc(Nc2nc3ccccc3c(=O)[nH]2)c1	3.4	4736	10.1	-7.6	-4.2	4.4	-6.0
COc1ccc(/C=C/C(=O)NC(=S)NCC2CCCO2)cc1 (stereo not given)	13.2	3779	8.7	0.7	2.1	5.2	-21.6
Cn1cccc1Cc1nnc(SCC(=O)NCC2CCCO2)n1-c1ccc(F)cc1 (stereo not given)	-11.2	6187	/	/	-1.6	3.1	-34.8
C/C(=N\NC(=O)CSCc1ccc(Cl)cc1)c1ccc(NC(=O)c2ccccc2)cc1	14.4	?	/	/	/	/	-49.9
COc1cc(CN=Cc2c(O)n(C(C)(C)C)c(=O)[nH]c2=O)cc(OC)c1	8.2	5953	18.8	13.9	1.4	-0.2	-20.1
COc1ccc(C(C)(C)C)cc1NC(=O)CCN1C(=O)C2CCCCC2C1=O (stereo not given)	/	8000	2.3	5.8	5.6	4.4	-3.5
Cc1nc(CC(=NN)c2ccc(O)cc2O)cs1	/	/	-6.1	15.5	-1.1	-4.2	/
O=c1cc(CN2CCN(c3ccccc3)CC2)nc2scc(-c3ccccc3)n12	3.5	4575	6.0	10.7	0.9	0.7	-5.1
CCOC(=O)C1CCCN(c2c(N3CCN(C4CCCCC4)CC3)c(=O)c2=O)C1 (stereo not given)	-1.2	4269	12.3	7.5	1.0	3.3	-14.4
C=C(C)Cn1c(SCC(=O)NN=Cc2c(O)ccc3ccccc23)nc2ccccc2c1=O	/	/	9.0	0.6	-3.9	9.8	/
COc1ccc(N2CCN(c3cc(=O)n(Cc4ccc(F)cc4)c(=O)[nH]3)CC2)cc1	/	6025	-1.4	1.4	6.4	0.2	-13.6
O=C(O)c1cc(S(=O)(=O)Nc2ccc(N3CCCCC3)cc2)ccc1Cl	4.3	4935	-1.1	-4.8	7.1	4.9	-4.4
O=C1N(O)C2(C=CCCC2)C(=NO)C12CCCCC2 (stereo not given)	/	/	0.2	7.6	1.3	-7.7	/
CCN(CC(=O)Nc1ccc(NC(C)=O)cc1)C(=O)c1cc(-c2ccccc2)nn1-c1ccccc1	-0.1	7140	2.8	-3.4	7.8	2.3	-13.2
C=CCN1C(=O)S/C(=C/c2ccsc2)C1=O	5.7	6295	1.2	10.0	2.0	14.7	-24.1
O=C(NCCS(=O)(=O)N1CCCCCC1)c1ccc(F)cc1	-4.0	5880	-5.4	-5.4	9.3	6.9	-21.8

Laid out differently: results already given
> COc1ccc(N2CCN(c3cc(=O)n(Cc4ccc(F)cc4)c(=O)[nH]3)CC2)cc1
  BJeLR lethal: /
  Autofluor counter: 6025
  Mtb hypoxia rep: -1.4
  Mtb hypoxia rep growth: 1.4
  Sa ugtP lethal: 6.4
  Sa RN4220 lethal: 0.2
  PrP UTR inh: -13.6

> O=C(O)c1cc(S(=O)(=O)Nc2ccc(N3CCCCC3)cc2)ccc1Cl
  BJeLR lethal: 4.3
  Autofluor counter: 4935
  Mtb hypoxia rep: -1.1
  Mtb hypoxia rep growth: -4.8
  Sa ugtP lethal: 7.1
  Sa RN4220 lethal: 4.9
  PrP UTR inh: -4.4

The list continues:
structure	BJeLR lethal	Autofluor counter	Mtb hypoxia rep	Mtb hypoxia rep growth	Sa ugtP lethal	Sa RN4220 lethal	PrP UTR inh
Cc1ccc(C(=O)NNC(=O)c2ccc(Br)s2)cc1S(=O)(=O)N1CCOCC1	/	3747	5.6	6.2	3.2	3.6	-10.4
COc1ccc(C2CC(=O)C=C(c3ccc4ncccc4c3)C2)cc1OC (stereo not given)	/	/	8.4	10.0	2.1	7.1	/
CCC1Sc2ccc(S(=O)(=O)CCC(=O)N3CCc4ccccc43)cc2NC1=O (stereo not given)	11.0	4605	10.3	3.8	12.1	7.9	-1.7
O=C(NCc1ccccn1)C1CCN(S(=O)(=O)N2CCC3(CC2)OCCO3)CC1	8.2	2543	6.4	-4.9	-1.3	2.3	-19.3
CC1CCCN(C(=O)Cn2c3ccccc3c3nc4n(c(=O)c32)CCS4)C1 (stereo not given)	-6.5	5892	-14.7	9.6	1.9	6.6	-13.8
COc1ccc2sc(-c3ccccc3OC)c(-c3ccc(OCCN(C)C)cc3)c2c1	/	3809	20.0	18.6	88.0*	1.9	-14.8
Cc1cccc(Nc2ncnc3onc(-c4cccc(Cl)c4)c23)c1C	-6.7	3718	/	/	/	/	-13.5
O=C(c1cccc(Br)c1)N1CCN(C(=O)N2CCCCC2)CC1	12.3	9790	-0.3	9.1	-4.2	5.4	-12.8
CSc1ccc(CN2CCCC(N3CCN(c4ccccc4)CC3)C2)cc1 (stereo not given)	-0.8	3723	-4.6	-0.5	14.9	5.7	-10.3
O=C(Nc1ccccc1)c1cc([N+](=O)[O-])ccc1N1CCCCC1	/	2808	2.5	6.6	6.2	2.4	-7.2
NC(=O)CSC1=Nc2ccccc2C2=NC(CCC(=O)NCc3ccc(F)cc3)C(=O)N12 (stereo not given)	5.9	3100	6.4	3.6	1.8	0.6	-1.1
CCCCN(C(=O)CSCC(=O)Nc1cccc(C)c1)c1c(N)n(CCCC)c(=O)[nH]c1=O	-3.4	?	1.2	1.5	2.7	-2.4	-18.8
CCC(C)(C)n1nnnc1C(c1cccc(C#N)c1)N1CCN(c2cc(C)ccc2C)CC1 (stereo not given)	2.2	10048	8.3	1.3	8.6	2.3	-5.3
O=C(NCC1CCN(C(=O)c2ccc([N+](=O)[O-])cc2)CC1)C(=O)Nc1ccccc1	5.3	3565	-7.6	-2.5	-3.5	1.8	-24.9
COCCNC(=S)N/N=C(\C)c1ccc(OC)cc1	3.8	2802	/	/	/	/	-18.3
O=C(C1=COCCO1)N1CCN(S(=O)(=O)c2cccc(F)c2)CC1	/	?	0.2	5.3	1.6	2.8	-13.2
C=CC[n+]1c(-c2ccc(C)cc2)csc1NNC(=O)Nc1ccccc1	14.7	12784	2.6	2.2	-9.5	11.3	-33.6
O=C(NCC1CCCO1)C(=O)N/N=C/c1ccc(OCc2ccccc2Cl)cc1 (stereo not given)	4.4	6280	/	/	/	/	-55.7
CC(C)OC(=O)CC1C(=O)NCCN1C(=S)NC(=O)c1ccccc1 (stereo not given)	-2.4	2567	4.7	12.9	-7.1	-2.1	-18.2
O=C1CCCCN1CCC(=O)N1CCCC(Nc2ccc(F)c(F)c2)C1 (stereo not given)	-2.2	5633	7.9	6.6	5.4	2.3	-10.7
O=C(NCCCN1CCN(c2ccccc2F)CC1)C1CCN(S(=O)(=O)c2cccs2)CC1	1.3	10711	14.3	6.8	4.3	2.3	-21.5
N#Cc1c(C(F)(F)F)cc(-c2ccccc2)nc1SCCN1CCOCC1	1.0	11081	8.0	-1.1	0.5	11.8	-20.6
CSCCC(NC(=O)C12CC3CC(CC(C3)C1)C2)C(=O)OCC(=O)c1ccc(Cl)cc1 (stereo not given)	-1.8	3158	1.7	-6.9	6.4	1.7	2.4
CN(C)c1ccc(C2OC(=O)C(C)(C)C(=O)C2(C)C)cc1 (stereo not given)	1.4	4094	/	/	1.4	-1.5	-16.5
CC(=O)Nc1ccc(S(=O)(=O)NNC(=S)NCC2CCCO2)cc1 (stereo not given)	4.7	5909	4.5	16.3	2.1	2.6	-4.6
O=C1CSC(c2ccc([N+](=O)[O-])cc2)N1c1ccccc1 (stereo not given)	1.1	3978	8.2	-3.9	4.5	1.7	-28.4
COc1ccc(N(C(=O)CCl)C(C(=O)NCCc2ccccc2)c2cccs2)cc1 (stereo not given)	113.8*	10095	16.0	16.1	-10.4	15.7	-59.3
COc1ccc(N(C(=O)Cn2nnc3ccccc32)C(C(=O)NCc2ccco2)c2cccnc2)cc1 (stereo not given)	-2.6	4858	/	/	5.4	-2.5	-32.2
COc1ccc(C(=O)Nn2cnc3ccccc3c2=O)c(OC)c1	-4.4	11208	/	/	/	/	-70.6
CN(C)S(=O)(=O)Nc1ccccn1	-1.7	3737	/	/	/	/	-1.3
CCn1c2ccccc2c2nnc(SCC(=O)OCN3C(=O)c4ccccc4C3=O)nc21	3.4	2596	6.5	2.6	-3.6	3.8	-11.1
CC(=O)c1cccc(NC(=O)Nc2ccc3c(c2)CCC3)c1	-0.9	5891	-6.1	11.8	-18.8	-2.5	-44.1
CCOc1cnn(Cc2ccccc2)c(=O)c1SCc1ccccc1	7.5	1968	8.2	3.3	5.8	-1.0	5.1
C=C(C)CSc1nnc(-c2cccc(Cl)c2)n1N	-1.1	21220*	2.0	6.2	-8.2	8.9	-31.3
COc1ccc(C2C(C(=O)c3ccco3)=C(O)C(=O)N2c2nnc(C)s2)cc1 (stereo not given)	5.1	4478	14.4	11.6	7.6	25.1	-25.8

Look-ups from the entries so far:
COc1ccc(C2C(C(=O)c3ccco3)=C(O)C(=O)N2c2nnc(C)s2)cc1 (stereo not given) – Sa ugtP lethal = 7.6
C=C(C)CSc1nnc(-c2cccc(Cl)c2)n1N – Sa ugtP lethal = -8.2
